# Screening data deposited in PubChem BioAssay by ICCB-Longwood Screening Facility, Harvard Medical School.
# Anaer choline gr: blocks anaerobic gram-negative growth on choline. Gram-negative bacterium anaerobic choline minimal medium, absorbance growth; stronger effect = lower value; many inactives read as strong as hits in the columns shown. AID 1963822. calls only. 55,000 compounds, 0.2% hits;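 active means growth z-score on choline under -2 at 7 or 20 h with little or no fall on glycerol, limits in tiers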;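 further: stock transfer was 300 nL into about 50 µL; the organism is E. coli; final concentration not given here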
# Anaer choline gr early: also measured in Anaer choline gr; calls as there; z-score; measured here: choline growth z-score, timepoint 1;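 score of optical density at 7 h as mean of two plates; lower means less growth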
# Active calls of the source: *; i = inactive; & = joins results of further samples. These rows are one share of the data. The share of hits here may be higher or lower than overall.
smiles	Anaer choline gr	Anaer choline gr early
COc1ccc(-c2cc(-c3nc4c5sc6nc(C)cc(C)c6c5ncn4n3)[nH]n2)cc1	i	0.27
COc1ccc(NC(=O)C2CCN(c3ccc(-n4cccc4)cn3)CC2)cc1	i	0.1
CNS(=O)(=O)c1ccc2nc(NC(=O)c3cncc(Br)c3)sc2c1	i	1.1
Cc1nc(-c2ccc(C)c(S(=O)(=O)NCC(=O)Nc3ccc(Cl)cc3)c2)no1	i	0.53
COC(=O)c1ccc(NC(=O)Cn2ccn3nc(-c4ccc5c(c4)OCO5)cc3c2=O)cc1	i	0.26
CCCN1C=NS(=O)(=O)c2cc(C(=O)NC3CC3)ccc21	i	-0.45
Cc1nc(-c2cnccn2)[nH]c(=O)c1C	i	-0.6
CCOc1ccc(Br)c(C2Nc3ccc(C)cc3[C@H]3OCC[C@@H]23)c1 (stereo not given in full)	i	-0.77
CN(CCCNC(=O)C1CCCN(C(=O)c2cccc(Cl)c2)C1)c1ccccc1 (stereo not given)	i	-1.1
CCN1C(=O)c2ccccc2S(=O)(=O)c2ccc(C(=O)N3CCN(c4ccccc4)CC3)cc21	i	1.4
COc1cc(/C=C(\C#N)C(N)=O)cc(CSc2nc3ccccc3s2)c1O	i	-0.46
COc1ccc(-c2nc3c4ccccc4n(CC(=O)c4c[nH]c5ccccc45)c(=O)n3n2)cc1	i	0.56
CC(C)NC(=O)c1ccc(CSc2nc3cccnc3n2Cc2ccccc2)cc1	i	0.79
Cc1ccccc1N1CC(O)=C(c2nc3ccccc3n2C)C1=N	i	-0.77
CCOc1ccc(C2C3=C(CC(c4ccc(OC)c(OC)c4)CC3=O)Nc3onc(C)c32)cc1 (stereo not given)	i	-0.33
Cc1cc(C)c2c(N)c(C(=O)NCc3ccc(Cl)cc3)sc2n1	i	0.92
CNc1nc(C(N)=O)c(NC(=O)c2ccc3c(c2)OCO3)s1	i	0.97
CCCCOc1ccc(-c2cc3c(SCC(C)C)nccn3n2)cc1	i	0.29
Cc1cc(CN2CCC(N3CCCCC3)CC2)on1	i	0.42
CCCNS(=O)(=O)c1ccc2c(c1)C(C)(C)CN2CC(=O)N1CCCC1	i	0.85
Cc1cc(C)cc(NC(=O)Cn2cnc3c(sc4ncccc43)c2=O)c1	i	-0.67
Cc1ccccc1-c1noc(CCn2nc(-c3ccc4c(c3)OCO4)ccc2=O)n1	i	0.85
CCCOc1c(C(=O)OC)sc2ccc(NC(=O)NCCc3ccccc3)cc12	i	1.1
COC(=O)c1ccc(NC(=O)c2sc3nc(C)cc(=O)n3c2C(=O)Nc2ccc(Cl)cc2)cc1	i	0.44
Cc1cc(C)c(-c2c(N3CCOCC3)c(=O)c2=O)cc1C	i	0.42
Cc1cc(-c2nc(-c3ccc4c(c3)OCO4)no2)n[nH]1	i	-0.23
Cc1[nH]c(C(=O)Nc2ccccc2F)c(C)c1S(=O)(=O)N1CCCC1	i	-0.11
CC1CCN(c2nc3ncnc(SCC(=O)NC4CCCCC4)c3s2)CC1	i	-0.07
O=c1c2sccc2n2c(SCc3cccc(F)c3)nnc2n1Cc1ccccc1	i	1.4
CCNc1ncnc2c1cnn2-c1cccc(Cl)c1	i	-0.74
CCOCCCNC(=O)N1c2ccccc2NC2=C(C(=O)CC(C)(C)C2)C1c1ccc(C)cc1 (stereo not given)	i	-0.21
Cc1ccc(N2CCN(S(=O)(=O)c3cc(-c4nnc(C5CC5)o4)co3)CC2)cc1	i	1.3
CCOC(=O)CC1(NC(=O)N2CCc3cn(C)c4cccc(c34)C2)CCCCC1	i	0.69
O=C(NCCS(=O)(=O)N1CCN(c2ccc(F)cc2)CC1)C1c2ccccc2Oc2ccccc21	i	-0.47
O=C(Nc1cccc(F)c1)c1nnc(CSCC(=O)N2CCN(c3ccccn3)CC2)s1	i	0.11
CC(=O)Nc1c(-c2ccc(C)cc2)c(C)nn1-c1ccc(C(=O)N2CCN(c3ccccn3)CC2)cc1	i	0.03
Cc1cc(-c2nn3c(C(C)C)nnc3s2)no1	i	-0.37
O=C(O)CCCCCC[C@H]1C(=O)C[C@@H](O)[C@@H]1/C=C/[C@@H](O)Cc1ccccc1	i	0.32
Cc1ccc(CN2C(=O)c3c(-n4cccc4)c4cc(C)ccc4n3CC2(C)C(=O)NC2CCC(C)CC2)cc1 (stereo not given)	i	-0.04
CCN(CC)S(=O)(=O)c1ccc2c(c1)cc(C(=O)N1CCN(c3cccc(OC)c3)CC1)n2C	i	0.96
O=C(c1cnc2ccccc2c1Nc1ccccc1F)N1CCOCC1	i	-0.47
O=S(=O)(Nc1ccccc1-c1ccc2ccccc2n1)c1cccc(Cl)c1	i	2.9
Cc1ccc2[nH]c(-c3ccccc3)c(CN3CCC(C)CC3)c(=O)c2c1	i	0.18
Cc1cccc(-n2ccnc(NCc3ccc(Cl)cc3)c2=O)c1	i	-0.59
Cc1nc(-c2cc(S(=O)(=O)N3CCCc4ccccc43)c(C)s2)sc1C	i	1.3
CCn1c(C(=O)O)cc2cc(S(=O)(=O)N(C)C)ccc21	i	0.99
Cc1c(-c2nc(-c3ccc(Cl)cc3)no2)sc2ncn(CC(=O)N3CCCC3)c(=O)c12	i	-1.1
COc1ccc(CCC(=O)N2CSC[C@@H]2C(=O)NCc2csc(C)n2)cc1	i	0.13
O=C(NCCCN1CCOCC1)NC1COc2ccccc2C1 (stereo not given)	i	-2.9
Cc1sc(C)c(S(=O)(=O)NCc2ccc(Cl)cc2)c1-c1ccno1	i	-0.2

# More compounds:
smiles	Anaer choline gr	Anaer choline gr early
Cc1nc2nc3c(c(N4CCN(c5ccccc5)CC4)n2n1)CCCC3	i	-0.52
Cc1nn(-c2nc3ccc(Br)cc3s2)c2c1C(c1cccnc1)CC(=O)N2 (stereo not given)	i	-0.18
CN(C)CCC(c1ccc(Cl)cc1)c1ccccn1 (stereo not given)	i	-0.07&0.29&0.26&0.36&0.64
COc1ccc(-c2noc(-c3cc(C4CC4)[nH]n3)n2)cc1OC	i	0.04
Cc1cc2c(cc1C)N(CC(=O)NCc1ccco1)C(=O)C1CCCC1=N2 (stereo not given)	i	0.08
COc1cccc(-c2oncc2CN2CCC3(CC2)OCCO3)c1	i	-0.15
CCOC(=O)c1c(C)c(C(=O)N2CCC(C)CC2)c(C)n1C	i	0.62
CCCNC(=O)c1cc2c(Cl)ccc3c2n1CC(CC)O3 (stereo not given)	i	1.1
Cc1ccc2c(c1)N(CCCC(=O)Nc1ccccc1Cl)C(=O)CO2	i	-0.06
Cc1cc2c(cc1S(=O)(=O)N1CCC(C)CC1)OCC(=O)N2Cc1noc(C2CC2)n1	i	0.23

# Among those listed so far, two contain a furan ring, fused or not.
smiles	Anaer choline gr	Anaer choline gr early
Cc1ccc(N2CCN(S(=O)(=O)c3cc(-c4nnc(C5CC5)o4)co3)CC2)cc1	i	1.3
Cc1cc2c(cc1C)N(CC(=O)NCc1ccco1)C(=O)C1CCCC1=N2 (stereo not given)	i	0.08

# (cont.)
smiles	Anaer choline gr	Anaer choline gr early
O=C(NCc1ccccn1)c1nc(-c2ccc(S(=O)(=O)N3CCCC3)cc2)no1	i	2.5
CC(=O)Nc1ccc2nc(NC(=O)CSc3nnc(-c4cc5ccccc5o4)n3C)sc2c1	i	0.03
COc1cc2c(=O)n(Cc3ccc(C(=O)NC4CC4)cc3)c(=O)n(CC(=O)NCCC(C)C)c2cc1OC	i	-0.11
CCSc1nc2ccc(NS(=O)(=O)c3ccc(Cl)cc3)cc2s1	i	0.27
COc1ccc(C2=CC(c3cccc(OC)c3)n3ncc(C(=O)Nc4ccc(C)cc4)c3N2)cc1 (stereo not given)	i	-1.1
CCC(C)NC(=O)Cn1c2ccccc2c2ncn(Cc3nc(C4CC4)no3)c(=O)c21 (stereo not given)	i	-0.16
COC(=O)c1ncn2c1C(=O)N(Cc1cccc(OC)c1)C(C)(C(=O)NC1CCCC1)C2 (stereo not given)	i	0.71
CNC(=O)c1cc(=O)n(CC(=O)Nc2sc3c(c2C(=O)OC)CCC3)c2ccccc12	i	-0.22
C=CCNC(=O)c1cnc2scc(C)n2c1=O	i	-0.44
CC(C)Cn1cc2c3c(cccc31)CN(C(=O)NCC1CCCO1)CC2 (stereo not given)	i	0.31
COc1ccc(S(=O)(=O)CCC(=O)N2CCCC2c2nc(-c3ccc(C)cc3)no2)cc1 (stereo not given)	i	-0.51
Cc1ncc(-c2ccc(S(=O)(=O)N3CCOCC3)s2)o1	i	-0.12
CCCCC/C=C\C/C=C\C/C=C\C/C=C\CCCCCC(=O)O	i	0.44
CCc1ccc(NC(=O)C2=CC(c3ccc(C)cc3)=NS(=O)(=O)N2C)cc1	i	1.6
COc1ccc(C)cc1NC(=O)c1sc2ncnc(N3CCCCC3C)c2c1C (stereo not given)	i	1.1
Cc1ccc(S(=O)(=O)Nc2ccc3c(c2)n(C)c(=O)n3C)c(C)c1	i	1.8
O=C(c1cc(=O)c2cc(Cl)ccc2o1)N1CCN(CCc2ccncc2)CC1	i	-0.54
COc1ccc2c(c1)nc(CN1CCCCC1)n2C	i	-1.6
C[C@@H](O)[C@H]1C(=O)N2C(C(=O)O)=C(S[C@@H]3CN[C@H](C(=O)N(C)C)C3)[C@H](C)[C@H]12	i	-2.1&-2.2
CCc1nc2sc(C(C)C)nn2c1S(=O)(=O)N1CCOCC1	i	-1.2
CN1CCN(C(=O)c2cccc(-c3nc(-c4ccc(F)cc4)no3)c2)CC1	i	-0.47
Oc1ccc(-c2c(-c3ccccc3)nn3c(C(F)(F)F)cc(C(F)(F)F)nc23)cc1	i	-0.07
Cc1ccc(C(=O)N2CCN(c3ncnc4c3nnn4-c3ccccc3)CC2)cc1	i	-1.4
COc1ccc(CNc2nc(-c3cccnc3)nn2S(C)(=O)=O)cc1	i	-2.6
COc1ccc(Cl)cc1NC(=O)N1CCN(c2ccc(=O)n(-c3ccccc3)n2)CC1	i	-1.3
OC[C@H]1O[C@H](O[C@H]2[C@H](O)[C@@H](O)[C@H](O)O[C@@H]2CO)[C@H](O)[C@@H](O)[C@@H]1O	i	0.48
Brc1cccc2c1CCN(CCc1ccccc1)C2	i	-1.5
c1coc(-c2nc3nc4c(c(NCc5cccs5)n3n2)CCC4)c1	i	-1.6
Cc1ccc(OCc2nc(C)c(C(=O)Nc3nnc(C(C)C)s3)s2)cc1C	i	0.85
CCOC(=O)N1CCC2(CC1)N=C(c1ccccc1O)CC(c1cc(F)ccc1F)N2 (stereo not given)	i	0.44

# A draw from above in order of molar mass, lowest first.
smiles	Anaer choline gr	Anaer choline gr early
CN(C)CCC(c1ccc(Cl)cc1)c1ccccn1 (stereo not given)	i	-0.07&0.29&0.26&0.36&0.64
O=C(O)CCCCCC[C@H]1C(=O)C[C@@H](O)[C@@H]1/C=C/[C@@H](O)Cc1ccccc1	i	0.32
COc1cc(/C=C(\C#N)C(N)=O)cc(CSc2nc3ccccc3s2)c1O	i	-0.46
O=C(NCc1ccccn1)c1nc(-c2ccc(S(=O)(=O)N3CCCC3)cc2)no1	i	2.5
CC(=O)Nc1ccc2nc(NC(=O)CSc3nnc(-c4cc5ccccc5o4)n3C)sc2c1	i	0.03

# The list continues.
smiles	Anaer choline gr	Anaer choline gr early
Cc1nnc2ccc(-n3ncc4c3NC(=O)CC4c3ccc(OCc4ccc(Cl)cc4)cc3)nn12 (stereo not given)	i	0.09
N=C1C(c2nc3ccccc3c(=O)[nH]2)=C(O)CN1c1ccc(O)cc1	i	1.4
NS(=O)(=O)c1ccc2nc(NC(=O)COc3ccc(Cl)cc3)sc2c1	i	0.93
Cc1ccccc1-n1nc(C(=O)N2CCCC2)nc1-c1ccccc1	i	-0.5
CCC(=O)Nc1cccc(-c2noc(C3CCCN(C(=O)c4cc(OC)cc(OC)c4)C3)n2)c1 (stereo not given)	i	-0.44
Cc1cccc(-c2nc3nc(C)cc(N(CCO)CCO)n3n2)c1	i	0.81
COc1cccc(N2N=NC3C(=O)N(c4ccccc4)C(=O)C32)c1 (stereo not given)	i	0.13
Cc1ccc(N2C(=O)CCS2(=O)=O)cc1S(=O)(=O)NCC1CCCO1 (stereo not given)	i	-0.85
O=C(CCc1nc(CSc2nnc(-c3ccncc3)o2)no1)Nc1ccccc1	i	-0.83
O=C1CC(/C=C/c2ccccc2)Cc2nc(N3CCN(Cc4ccc5c(c4)OCO5)CC3)ncc21 (stereo not given)	i	-0.46
COc1ccccc1S(=O)(=O)Nc1ccc2c(c1)CN(C)C(=O)N2	i	0.1
O=C(C1CC(c2ccccc2F)=NO1)N1CCCCC1 (stereo not given)	i	-2.1
COc1cccc(NC(=O)c2c(N)c(C(=O)c3ccc(F)cc3)n3ccccc23)c1	i	0.02
Cc1[nH]c(C(=O)NCc2ccccc2Cl)c(C)c1S(=O)(=O)N1CCCC1	i	-0.88
COC(=O)c1ccc(NC(=O)Nc2c[nH]c(=O)[nH]c2=O)cc1	i	-0.6
COc1cccc(-c2csc(-c3nnn(-c4cccc(OC)c4)c3N)n2)c1	i	-0.72
CC1CN(S(=O)(=O)c2ccc3c(c2)NCCS3)c2ccccc2O1 (stereo not given)	i	1
Cc1nn2c(S(=O)(=O)NC(C)(C)C)c(C)nc2s1	i	-0.12
c1ccc(Cn2cc3c(-c4ccccc4)nnc-3c3ccccc32)cc1	i	0.56
CC(=O)N(CC(O)CN(C(C)=O)c1c(I)c(C(=O)NCC(O)CO)c(I)c(C(=O)NCC(O)CO)c1I)c1c(I)c(C(=O)NCC(O)CO)c(I)c(C(=O)NCC(O)CO)c1I (stereo not given)	i	0.78
O=C1c2ccc(F)cc2C(=O)N1CCO	i	-1.9
